# HNF4A DNA FP – change in binding of human HNF4 alpha to DNA | P41235 | HNF4a-FITC DNA binding, fluorescence polarization, 1 h | activity change, % at 10 µM | 360,000 compounds, 0.3% hits; in the data active = activity change above about 30%, passing the limit was not always enough;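 also: controls were the assay level and a saturating level of protein; the project sought stronger binding though the title names inhibitors; some compounds called inactive have numbers as strong as hits; positive values seem to mean higher polarization but the record does not say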
# Target sequence (P41235 whole entry, looked up): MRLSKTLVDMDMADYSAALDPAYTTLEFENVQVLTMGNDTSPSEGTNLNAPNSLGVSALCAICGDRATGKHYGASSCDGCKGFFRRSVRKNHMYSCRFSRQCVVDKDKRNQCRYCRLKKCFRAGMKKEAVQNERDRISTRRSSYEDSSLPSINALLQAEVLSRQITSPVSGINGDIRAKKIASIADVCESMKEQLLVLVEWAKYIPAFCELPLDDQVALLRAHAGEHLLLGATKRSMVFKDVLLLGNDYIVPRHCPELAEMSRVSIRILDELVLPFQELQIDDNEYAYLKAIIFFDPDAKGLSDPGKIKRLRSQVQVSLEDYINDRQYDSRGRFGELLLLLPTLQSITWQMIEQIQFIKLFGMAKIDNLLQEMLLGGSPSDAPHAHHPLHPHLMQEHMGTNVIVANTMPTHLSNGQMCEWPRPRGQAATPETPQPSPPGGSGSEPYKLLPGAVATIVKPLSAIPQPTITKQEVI
# Active calls of the source: *. An excerpt, so the mix of outcomes need not match the whole.
SMILES,HNF4A DNA FP
CC1(C(=O)NS(=O)(=O)c2ccccc2)CCN1C(=O)CC1CCCCC1 (stereo unspecified),-4.0
COc1cc(-c2c(CCO)sc3ccccc23)cc(OC)c1OC,1.1
O=C(NC1CCCC1)C1c2ccccc2OCC(=O)N1Cc1ccc2c(c1)OCO2 (stereo unspecified),-0.8
Cc1ccc(CN2C(=O)c3ccccc3C2c2nnnn2-c2c(C)cccc2C)cc1 (stereo unspecified),-4.1
CCCCc1cc(=O)oc2cc(OC(C)C(=O)NCCN3CCOCC3)ccc12 (stereo unspecified),0.3
O=C(Nc1ccc2c(c1)OCO2)c1cc(C2CCCCN2C(=O)c2ccc(Cl)cc2)on1 (stereo unspecified),-2.5
O=C(NCc1ccccc1Cl)c1csc(COCCO)n1,3.6
O=C(C(=O)N1CCN(CCN2CCOCC2)CC1)c1ccccc1,0.5
O=C(NCc1cccnc1)c1cc(C2CCCCN2S(=O)(=O)c2ccccc2)on1 (stereo unspecified),2.2
NC(c1ccccc1)c1csc(NC(=O)NCCc2ccccc2)n1 (stereo unspecified),-0.6
COc1cc2[nH]c(C)c(-c3ccccc3)c(=O)c2cc1Cl,1.2
OC(c1ccc(F)cc1)c1nc(/C=C/c2ccccc2)cs1 (stereo unspecified),0.7
CC1(C(=O)Nc2ccc3c(c2)OCO3)CCN1C(=O)CCC1CCCC1 (stereo unspecified),0.0
C(=C\c1ccccc1)/CN1CCN(C(c2cccs2)c2nnnn2-c2ccc3c(c2)OCCO3)CC1 (stereo unspecified),-5.2
COCCCNC(=O)C[C@@H]1C[C@@]2(C(=O)OC)CCCCC=C2N(Cc2ccco2)C1=O,0.9
CCCN1C(=O)CC(c2ccc(OC)c(OC)c2)C1=O (stereo unspecified),-35
COc1ccc(S(=O)(=O)Nc2ccc3c(c2)C(=O)N([C@H](C)CO)C[C@H](C)[C@@H](CN(C)Cc2ccncc2)OCCCC[C@@H](C)O3)cc1,4.5
COc1ccc(NC(=O)C2(C)Cc3c(-c4ccc5c(c4)OCO5)ccnc3O2)cc1 (stereo unspecified),2.5
CN(C)CCN1CCN(C2CN(Cc3cn(Cc4ccccc4)nn3)S(=O)(=O)C2)CC1 (stereo unspecified),0.7
Cc1ccc(F)cc1C(=O)N1CCCCC1c1cc(C(=O)Nc2ccccc2)no1 (stereo unspecified),-3.1
COc1ccc(C=C2SC(=S)N(CCCC(=O)Nc3ccc(C(=O)O)c(O)c3)C2=O)cc1OC,23
O=C(/C=C/[C@H]1O[C@@H](n2ccc(=O)[nH]c2=O)[C@H](O)[C@@H]1O)NCCc1c[nH]c2ccccc12,-0.9
CCCc1nc2ccccc2n1C(CCSC)C(=O)NC(C)(C)C (stereo unspecified),2.6
CCCOc1ccc(F)cc1-c1cc(C(=O)Nc2ccc(C)c(NS(C)(=O)=O)c2)[nH]n1,0.3
COC(=O)[C@]12CCCCC=C1N(Cc1cccc3ccccc13)C(=O)[C@H](CC(=O)N1CCC(c3ccccc3)CC1)C2,-0.8
CC(C)CN1CCC1(C)C(=O)Nc1cccc(C#N)c1 (stereo unspecified),-0.1
CC(=O)Nc1cccc(-c2ccnc3c2CC(C)(C(=O)Nc2ccccc2)O3)c1 (stereo unspecified),-2.0
O=C(NCCc1c[nH]c2ccccc12)c1[nH]c(C(F)(F)F)nc1-c1ccccc1,-1.3
COc1ccc(NC(=O)C2(C)Cc3c(-c4ccccc4)ccnc3O2)cn1 (stereo unspecified),-3.5
OC(Cc1ccccc1)c1ncc(-c2ccc(Cl)cc2)[nH]1 (stereo unspecified),3.1
CCN(CC)c1ncnc2c1ncn2[C@H]1CN(Cc2cccs2)C[C@@H](CO)O1,-1.1
CCOC(=O)C1CCCN(C(=O)c2cc(C)oc2C)CC1 (stereo unspecified),2.6
O=C(Nc1ccccc1)C1Cc2c(-c3ccc(Cl)cc3)ccnc2O1 (stereo unspecified),-1.7
COc1cc(-c2coc3c(C(=O)NCc4ccccc4)cccc23)ccc1O,2.6
COC(=O)C1=CN(c2ccc(Oc3ccccc3)cc2)C(N)=C(C#N)C1c1cccc(F)c1 (stereo unspecified),3.0
Cc1ccc2nc(-c3ccc(Cl)cc3)c(Cc3ccccc3C(F)(F)F)n2c1,0.8
CCCS(=O)(=O)NC(=O)C1(C)CCN(C(=O)c2ccnc(Cl)c2)C1 (stereo unspecified),-1.8
Cc1nc(C(F)(F)F)ccc1C(=O)N1CCCC(C)(C(=O)O)C1 (stereo unspecified),2.7
CCCn1c(CC)nc([N+](=O)[O-])c1Sc1ncn[nH]1,-1.9
CN1CCN(c2ccc(CNC(=O)C3Cc4c(-c5cccc(F)c5)ccnc4O3)cc2)CC1 (stereo unspecified),-3.6
Cc1ccc2c(c1)CCCO[C@]21O[C@H](CCO)C[C@H](O)[C@H]1O,-1.6
CCC1(C2C=COC=C2)NC(=O)NC1=O (stereo unspecified),4.6
CCCNC(=O)C1(C)CCCN(Cc2ccccc2N(C)C)C1 (stereo unspecified),-2.2
COc1ccc(C(NC(=O)C2CCN(CCOc3ccc(F)cc3)CC2)c2cccs2)cc1 (stereo unspecified),2.1
CN(C)C1CN(Cc2cn(Cc3ccc(Cl)cc3)nn2)S(=O)(=O)C1 (stereo unspecified),3.5
Cc1c(C(=O)NCc2cccc(C(F)(F)F)c2)sc(=O)n1Cc1ccccc1F,-0.7
COCC(O)Cn1ccnc1N=Nc1ccccc1 (stereo unspecified),-1.4
CC(=O)Nc1cccc(-c2ccnc3c2CC(C(=O)NCCc2ccccc2)O3)c1 (stereo unspecified),4.7
O=C(Nc1ccccc1Cl)c1cc(C2CCCN(S(=O)(=O)c3cccs3)C2)on1 (stereo unspecified),2.1
Cc1sc2ncnc(SCC(=O)NC3CCS(=O)(=O)C3)c2c1C (stereo unspecified),6.1
COc1ccc(N2CCN(c3cc(C(=O)Nc4cc(OC)c(OC)c(OC)c4)ncn3)CC2)cc1OC,3.7
CCCCn1nnnc1C(c1ccccc1)N1CCN(c2ccc(C)cc2)CC1 (stereo unspecified),-3.3
COc1ccc(S(=O)(=O)NC(=O)C2(C)CCN2C(=O)COc2ccc(Cl)cc2)cc1OC (stereo unspecified),-1.0
COc1ncccc1-c1cc2nc(NCCCN(C)C)n(C)c(=O)c2s1,0.9
COC(=O)[C@@]12C[C@@H](CC(=O)N3CCOCC3)C(=O)N(Cc3ccco3)C1=CCC(C)(C)C2,-4.4
Cc1cc(C)cc(C(O)c2ncc(-c3cccc(F)c3)[nH]2)c1 (stereo unspecified),4.9
Cc1ccc(F)cc1NC(=O)C1CC(=O)N(Cc2ccccc2)C1 (stereo unspecified),1.5
O=C(O)c1cc2ccccc2c2c1C(=O)c1ccccc1-2,-2.8
CC(=O)NC(C)(c1ccccc1)c1nc(-c2cccc(C(F)(F)F)c2)cs1 (stereo unspecified),2.0
Cc1cccc(C)c1N1C(=O)c2ccccc2NC(=O)C1C(=O)Nc1ccc2c(c1)OCCO2 (stereo unspecified),4.3

# In the list so far, these have a cyano group:
SMILES,HNF4A DNA FP
CC(C)CN1CCC1(C)C(=O)Nc1cccc(C#N)c1 (stereo unspecified),-0.1
COC(=O)C1=CN(c2ccc(Oc3ccccc3)cc2)C(N)=C(C#N)C1c1cccc(F)c1 (stereo unspecified),3.0

# Pulled one by one from above (6):
SMILES,HNF4A DNA FP
O=C(/C=C/[C@H]1O[C@@H](n2ccc(=O)[nH]c2=O)[C@H](O)[C@@H]1O)NCCc1c[nH]c2ccccc12,-0.9
CC(=O)Nc1cccc(-c2ccnc3c2CC(C)(C(=O)Nc2ccccc2)O3)c1 (stereo unspecified),-2.0
CCCOc1ccc(F)cc1-c1cc(C(=O)Nc2ccc(C)c(NS(C)(=O)=O)c2)[nH]n1,0.3
O=C(Nc1ccccc1Cl)c1cc(C2CCCN(S(=O)(=O)c3cccs3)C2)on1 (stereo unspecified),2.1
COc1ccc(NC(=O)C2(C)Cc3c(-c4ccc5c(c4)OCO5)ccnc3O2)cc1 (stereo unspecified),2.5
OC(c1ccc(F)cc1)c1nc(/C=C/c2ccccc2)cs1 (stereo unspecified),0.7

# Back to the main list, starting 2 compounds before the break.
SMILES,HNF4A DNA FP
CC(=O)NC(C)(c1ccccc1)c1nc(-c2cccc(C(F)(F)F)c2)cs1 (stereo unspecified),2.0
Cc1cccc(C)c1N1C(=O)c2ccccc2NC(=O)C1C(=O)Nc1ccc2c(c1)OCCO2 (stereo unspecified),4.3
COc1ccc(OC)c(CN2C(=O)c3ccccc3C2c2nnnn2C(C)C)c1 (stereo unspecified),6.3
CCCC(=O)N1CCCC(c2cc(C(=O)NCc3ccccc3)no2)C1 (stereo unspecified),-2.6
Cc1cc(C)n2c(Nc3ccc4c(c3)OCCO4)c(-c3cc4ccccc4o3)nc2n1,1.4
COC(=O)[C@]12CCCCC=C1N(CCc1ccc(OC)c(OC)c1)C(=O)[C@H](CC(=O)NCc1cccc(C(F)(F)F)c1)C2,2.4
FC(F)(F)c1ccccc1Cc1c(-c2cccc(Cl)c2)nc2ccc(Cl)cn12,7.9
COc1cccc(NC(=O)c2ccc3nc(C)c(N(C)Cc4ccc(NC(C)=O)cc4)n3c2)c1,0.7
COC(=O)[C@@]12C[C@@H](CC(=O)NCC3CCCCC3)C(=O)N(Cc3cccc4ccccc34)C1=CCC(C)(C)C2,2.8
COc1c(C)cc(C(O)c2ncc(-c3cccc(C(F)(F)F)c3)[nH]2)cc1C (stereo unspecified),-1.1
Cn1c(=O)c2cc(NC(=S)NC3CCCCC3)ccc2n1-c1ccccc1,-0.3
CC(C)NC(=O)N1Cc2cc(C(=O)NC3CCC3)nc(-c3cccc(-c4cncnc4)c3)c2[C@H]1CCO,-0.5
COCCCNc1ccn2nc(-c3ccc(Cl)cc3)cc2n1,2.0
CC(C)N1CC(=O)N2CSCC2C1=O (stereo unspecified),4.2
COc1ccc(S(=O)(=O)N2CCC3CC2c2cc(-c4ccc5c(c4)OCO5)ccc23)cc1 (stereo unspecified),-0.6
Cc1c(C(=O)NCCC#N)sc(=O)n1Cc1ccc(C(=O)N(C)C)cc1,-1.6
O=C(NC1CCCCC1)C(c1ccccc1F)n1c(=O)c(-c2cc3ccccc3[nH]2)nc2ccccc21 (stereo unspecified),5.2
Nc1ccccc1C(=O)NN=Cc1cccc([N+](=O)[O-])c1,0.5
C=CCNc1ncnc2c1ncn2[C@H]1CN(Cc2cc(OC)c(OC)c(OC)c2)C[C@@H](CO)O1,3.6
Cc1c(C(=O)NCc2cccc(Cl)c2)sc(=O)n1Cc1cccc(F)c1,0.8
CC12CCC(=O)C=C1CCC1C2C(O)CC2(C)C1CCC2(O)C(O)CO (stereo unspecified),-0.2
NC(c1ccccc1)c1csc(NC(=O)Nc2ccccc2Oc2ccccc2)n1 (stereo unspecified),3.0
Cc1cccnc1C1=NOC(Cc2ccccc2)C(=O)N1C (stereo unspecified),1.9
C[C@@H]1CNC(=O)c2c(C(=O)NC3CCN(C(=O)OC(C)(C)C)CC3)ncn21,-2.9
CCCCCNC(=O)C1C(=O)Nc2ccccc2C(=O)N1c1ccc(OC)cc1 (stereo unspecified),1.8
CCCCc1c(-c2cccc(F)c2)ncn1CCc1ccccc1OC,1.8
Cc1ccc(NC(=O)CCC(=O)NN=Cc2ccc(C)o2)c(C)c1,0.5
CC1=C(C(=O)N(C)C)CC(CC(=O)NCC2CCCCC2)C(=O)N1Cc1ccc(F)cc1 (stereo unspecified),1.3
C[C@@H]1CN([C@H](C)CO)C(=O)CCCn2cc(nn2)CO[C@H]1CN(C)C(=O)c1ccc(N2CCN(C)CC2)cc1,1.5
CCOC(=O)[C@]12CCC=C1N(Cc1cccc3ccccc13)C(=O)[C@H](CC(=O)NCCCOC)C2,1.8
CCCNC(=O)C1(C)CCCN(Cc2ccc(-c3ccccc3)o2)C1 (stereo unspecified),-1.8
O=C(Nc1ccncc1)c1cc(C2CCCCN2C(=O)CCCc2ccccc2)on1 (stereo unspecified),3.2
COc1ccc(C(C(=O)NC(C)(C)C)n2c(=O)c(-c3ccccc3)nc3ccccc32)cc1 (stereo unspecified),-2.6
CC(C)Oc1ccc(F)cc1-c1cc(C(=O)Nc2ccccc2)[nH]n1,2.6
CC(C)C[C@H]1CN(CCCC[C@H]2CNC(=O)C(=O)N2Cc2ccccc2)C(=O)C(=O)N1CCc1ccccc1,-1.3
CCn1nccc1NC(=O)c1ccc2sc([C@@H]3O[C@H](CO)[C@H](O)[C@H](O)[C@H]3O)nc2c1,-1.9
COc1ccc(C(=O)N(C)CCOc2ccc(Cl)cc2)cc1S(=O)(=O)N1CCCC1,1.2
COc1cccc(C(NC(C)=O)c2nc(-c3cnn(C)c3)cs2)c1 (stereo unspecified),3.9
COc1ccccc1NC(=O)Nc1nc(C(N)CCc2ccccc2)cs1 (stereo unspecified),2.1
CCCCNC(=O)C1(C)CCN1C(=O)CSc1ccccc1 (stereo unspecified),-1.5
O=C(O)c1ccc(-n2ncc(Cl)c(Cl)c2=O)cc1,-1.5
CC(C)C[C@H]1CN([C@@H](Cc2ccccc2)CN2CCC[C@@H]2CN2C(=O)C(=O)NC[C@@H]2Cc2ccccc2)C(=O)C(=O)N1CC1CCCCC1,4.4
Cc1ccc(S(=O)(=O)N2[C@@H](c3cccc(Cl)c3)C(C(=O)OC(C)(C)C)=CC[C@H]2c2cccc(Cl)c2)cc1,1.4
Cc1cccc(COC[C@H](CC(C)C)N2CCN(C(=O)c3ccc(C(F)(F)F)cc3)CCC2=O)c1,7.9
O=C(C(=Cc1ccccc1)c1ccccc1)c1ccccc1,4.2
O=CNc1cc(-c2cccc(O)c2)cn2c(-c3ccc(F)cc3)cnc12,4.3
C[C@H]1CN([C@@H](C)CO)C(=O)CCCn2nncc2CO[C@H]1CN(C)S(C)(=O)=O,-1.9
COCCCNc1nccn2ccnc12,-2.8
CCOC(=O)C1=C[C@@H](c2ccccc2)N(S(=O)(=O)c2ccc(C)cc2)[C@H]1c1ccccc1Cl,-0.6
Cc1cccnc1C(NC(=O)C1CCN(Cc2ccc3ccccc3n2)CC1)c1ccc(Cl)cc1 (stereo unspecified),2.3
